# Compound activity from PubChem BioAssay.
# Vaccinia mCherry = qHTS for Stage-Specific Inhibitors of Vaccinia Orthopoxvirus: mCherry Reporter Primary qHTS; Potency, µM (doses to about 36.5 µM), inactives show at the highest dose activity change, negative = inhibition, usual class: inhibitors; actives 0.63% (n = 310,000); Vaccinia virus mCherry reporter infection, fluorescence; about a quarter of the inactives have no number; active = well fitted inhibition curve with a large enough effect; inconclusive = small, poorly fitted or top-dose-only effect; inactive = no such curve, though single readings can be large or run the other way; tested in A549 cells; note: nearly all actives have a fitted effect of over 35% in size; inactives centre near -10
# Vaccinia Venus = qHTS for Stage-Specific Inhibitors of Vaccinia Orthopoxvirus: Venus Reporter Primary qHTS. Vaccinia virus Venus reporter expression, fluorescence. Potency, µM (titrated, usually from 36.5 µM), for the others: at the highest dose activity change, negative = inhibition, actives largely listed as inhibitors. actives 0.46% (n = 330,000). AID 720580, 2013; active means well fitted inhibition curve with a large enough effect; inconclusive means small, poorly fitted or top-dose-only effect; inactive means no such curve, though single readings can be large or run the other way; tested in A549 cells; note: nearly all actives have a fitted effect of over 30% in size; inactives centre near -10
# * hit, by the source's call; i = inactive; ? = inconclusive; · = no result given; & = joins results of further samples; [ ] = dose if it differs, or a comment. % is set by controls: 0 for no effect and ±100 for the full control effect; potency is the fitted concentration of half-maximal effect.
structure	Vaccinia Venus	Vaccinia mCherry
Cc1ccccc1NC(=O)Cc1nc(COC(=O)c2ncc(Cl)c(Cl)c2Cl)cs1	0.2%	-12.7%
C=CCNC(=O)C(=O)N/N=C/c1cccc(Br)c1	0.4%	i
O=c1c2cnn(-c3ccc(F)cc3)c2ncn1Cc1ccccc1	-5.2%	·
CCCNC1CCS(=O)(=O)C1 (centres undefined)	-4.1%	-0.1%
O=C(N/N=C/c1ccccc1)c1sccc1OCc1ccc(F)cc1	-25.5%	·
O=C(CC1COc2ccccc2O1)Nc1ccccn1 (centres undefined)	-9.1%	·
Nc1nc(NCCCN2CCOCC2)nc(Nc2cccc(F)c2)c1[N+](=O)[O-]	-23.9%	i
O=C(COCc1cc(-c2cccs2)on1)Nc1cccc(Cl)c1Cl	-4.6%	-3.2%
CCN1CCN(c2ccc(N3CCN(S(=O)(=O)c4cccc([N+](=O)[O-])c4)CC3)nn2)CC1	-11.8%	-15.7%
COc1ccc(-c2csc(COC(=O)C(C)(C)C)n2)cc1	-17.0%	-25.0%
CCOC(=O)c1ccc(NC(=O)CCCn2c(=O)c3cccn3c3cccnc32)cc1	0.2%	-9.5%
CCC(=O)c1cn(CC(=O)OC)c2ccccc12	-6.9%	·
COC(=O)CC1COc2ccccc2N1C(=O)c1ccc(Br)cc1 (centres undefined)	-9.9%	-0.8%
Cc1cc(C)n(-c2ccc(C(=O)Nc3ccc(S(=O)(=O)NCc4ccco4)cc3)cc2)n1	?	?
O=C(CN1C(=O)C2CCCN2c2ncc(Cl)cc21)NCc1ccc2c(c1)OCO2 (centres undefined)	-1.2%	-4.7%
O=C(NNC(=S)Nc1ccc(C(=O)O)c(O)c1)c1ccncc1	-0.3%	?
CC(C)NC(=S)Nc1cccc2cnccc12	4.5%	-9.1%
O=C(NC1=NCCS1)c1cccc2ccccc12	-5.5%	i
O=C(C=Cc1ccco1)c1ccc([N+](=O)[O-])cc1	-4.0%	-10.9%
C#CCOCCOCCOCCNc1nc(N2CCN(C(=O)[C@H](CCCCN)n3cc(CCC(=O)O)nn3)CC2)nc(N2CCN(C(=O)[C@H](Cc3ccc(O)cc3)n3cc(CCO)nn3)CC2)n1	12.7%	-9.1%
O=C(CCN1CCOCC1)NNC(=O)Nc1cccc([N+](=O)[O-])c1	-26.9%	-16.7%
COc1ccc(C2=CC(c3cc(Br)ccc3F)n3c(nc4ccccc43)N2)cc1 (centres undefined)	-0.3%	-18.9%
COCCn1c(=NC(=O)CSCC(=O)N2CCOCC2)sc2ccccc21	-3.9%	-15.8%
CC1Cn2c(COc3ccccc3)nnc2S1 (centres undefined)	1.6%	-3.9%
CN1/C(=C\C(=O)Nc2ccc(Cl)cc2)C(C)(C)c2ccccc21	-18.4%	-10.3%
CCOc1cc(NC(=O)c2ccccc2C(=O)O)c(OCC)cc1NC(=O)c1ccccc1F	-8.0%	-14.4%
Cc1cc(C)cc(NC(=O)C(OC(=O)c2ccc(NC(=O)CC#N)cc2)c2ccccc2)c1 (centres undefined)	5.0%	-1.1%
O=C(NCc1cn2ccccc2n1)c1ccccc1	-17.2%	-8.1%
O=C(c1ccc(S(=O)(=O)Nc2cccc(C(F)(F)F)c2)cc1)N1CCOCC1	-11.1%	-13.9%
O=[N+]([O-])c1cc(C(F)(F)F)c(Cl)cc1N1CCN(CCO)CC1	-14.8%	-15.5%
Cc1ccn2c(=O)nc(SCC(=O)N3CCCCCC3)nc2c1	-3.7%	-13.4%
COc1ccc2c(c1)[nH]c1c(C)nccc12	?	-27.6%&-6.4%&-27.4%
COc1ccc(NC(=O)CSc2nc3ncccc3[nH]2)c(OC)c1	-0.4%	-2.0%
O=C(NCC(c1cccnc1)N1CCc2ccccc21)C(=O)Nc1ccccc1F (centres undefined)	-9.5%	-3.2%
Cc1c(NC(=O)CSc2ccccc2F)c(=O)n(-c2ccccc2)n1C	-7.7%	i
COCCCNC(=O)c1sc2nc(C)c(C(=O)Nc3ccc(Cl)cc3)c(-c3ccc(Br)cc3)c2c1N	-13.2%	-22.5%
CC1(C)CC(Cc2ccc(C(F)(F)F)cn2)N(C(=O)OC(C)(C)C)C1 (centres undefined)	-4.0%	1.2%
NC(=S)NN=C1CCC(C2CCCCC2)CC1 (centres undefined)	-7.3%	-26.7%
CCOc1ccccc1N(CC(=O)NCCSc1ccccc1)S(C)(=O)=O	2.1%	-2.3%
O=C1CCCN=C(Nc2ccc(F)c(Cl)c2)S1	-5.0%	i
C/C(=N/NC(=O)c1ccc2c(c1)OCO2)c1ccc(Br)s1	-8.7%	-8.4%
Cc1ccc(S(=O)(=O)N2CCN(C(=O)COC(=O)c3ccc(Br)o3)CC2)c(C)c1	-17.8%	-0.2%
CCc1nc2c(OCCC3CCCCC3)cccn2c1N(C)C(=O)C(C)C	-12.5%	6.0%
CN(CCc1ccccc1)C(C(=O)Nc1ccc2c(c1)OCCO2)C1CC1 (centres undefined)	-5.5%	i
COc1ccc(C2(C)NC(=O)N(CC(=O)Nc3ccc(-c4nc5ccc(C)cc5s4)cc3)C2=O)cc1 (centres undefined)	-23.5%	?
Cn1cc(C(=O)NC2CC2)c2ccccc21	-5.2%	i
Cc1cc(O)cc(O[C@H]2OC(CO)[C@H](O)[C@@H](O)[C@H]2O)c1 (some centres undefined)	-9.8%	i
O=C(CCCn1c(=S)[nH]c2cc3c(cc2c1=O)OCO3)NCCc1ccc(Cl)cc1	?	-23.8%
CCCCNC(=O)c1onc(CSc2ccc(F)c(F)c2)c1C(=O)NCCCC	-5.6%	i
CCCc1c(C(=O)NNc2ccc(C)cc2)cnn1-c1ccccc1	-9.7%	-16.7%

# Next entries follow.
structure	Vaccinia Venus	Vaccinia mCherry
C[C@H](C(=O)O)c1cccc(C(=O)c2ccccc2)c1	-7.0%	i
CC1CCN(S(=O)(=O)c2ccc3c(c2)N(CC(=O)N(C)Cc2ccccc2)C(=O)CO3)CC1	-7.3%	-8.0%
CC(Sc1n[nH]c(-c2ccccc2F)n1)C(=O)Nc1ccc(S(N)(=O)=O)cc1 (centres undefined)	-3.6%	-6.3%
Cc1ccc(S(=O)(=O)N2CN(Cc3ccco3)c3nc4ccccc4nc32)cc1	0.2%	·
COc1cc(NC(=S)NC(=O)c2ccccc2F)ccc1NC(=O)c1ccco1	-7.9%	i
CC(C)NC(=O)CN(Cc1ccc(F)cc1)C(=O)CCC(=O)Nc1ccccn1	-0.1%	3.2%
CC(=O)c1ccc(NC(=O)c2ccc(CNc3c(N4CCCC4)c(=O)c3=O)cc2)cc1	1.6%[7.34 µM]	i[7.34 µM]
COc1cccc(-n2c(-c3ccco3)nc3c(cnn3-c3ccc(Cl)cc3)c2=O)c1	-15.6%	-23.8%
C[C@H]1O[C@H](O[C@H]2[C@H](O[C@@H]3CC[C@@]4(C)C(CC[C@]5(C)C4CC=C4[C@@H]6CC(C)(C)CC[C@]6(C(=O)O[C@@H]6O[C@H](CO)[C@@H](O)[C@H](O)[C@H]6O)CC[C@]45C)C3(C)C)O[C@H](C(=O)O)[C@@H](O)[C@@H]2O)[C@@H](O)[C@@H](O)[C@@H]1O (some centres undefined)	1.8%	4.2%
CCCc1nc2ccccc2c(=O)n1NC(=O)c1c(O)c2ccccc2[nH]c1=O	-14.5%	-18.0%
CCOC(=O)C1CCCN(C2=NC(=O)/C(=C/c3ccc(N(C)C)cc3)S2)C1 (centres undefined)	4.9%	?
COc1ccc(C2SCCN2C(=S)Nc2cccc(Cl)c2)cc1 (centres undefined)	-23.1%	?
NC1=NC(c2ccc([N+](=O)[O-])cc2)N(c2ccc(F)cc2)C(N)=N1 (centres undefined)	-2.9%	-19.6%
COc1ccc(C(CCNCc2ccc(F)cc2)c2ccc(F)cc2)cc1 (centres undefined)	?	?
COc1ccc(-c2nnn(CC(=O)N(Cc3ccc(F)cc3)C(C(=O)NC3CCCC3)c3ccc(F)cc3)n2)cc1 (centres undefined)	-11.0%	-12.8%
Cc1cc(C)c2c(=O)c3c(oc2c1)C(=O)N(Cc1ccco1)C3c1ccccc1F (centres undefined)	12.5%	13.9%
CCCS(=O)(=O)N1CCCC(C(=O)NCCCOC)C1 (centres undefined)	0.7%	-4.5%
Cc1ccc(SCC(=O)NC(=O)Nc2ccc3c(c2)OCCO3)c(C)c1	3.1%	-7.8%
Fc1ccc(CNC(=S)NCc2ccc(F)cc2)cc1	-9.1%[7.34 µM]	i[7.34 µM]
O=C(Nc1ccc(Cl)cc1Cl)c1cc(S(=O)(=O)N2CCN(c3ccccc3F)CC2)ccc1F	-23.3%	-8.1%
CCc1nc(SCc2ccccc2)n[nH]1	-8.1%	-8.1%
NS(=O)(=O)c1ccc(NC(=O)/C=C/c2cccs2)cc1	2.2%	-9.2%
CCOC(=O)Cn1c(=N)n(CCOc2ccc3ccccc3c2)c2ccccc21	?	?
Cc1cc(Cn2nnc(-c3ccc(Br)cc3)n2)cc(C)c1O	-11.3%	-19.5%
Cc1ncc([N+](=O)[O-])n1CC(=O)NC1CCCCC1	-15.9%	i
Cc1ccc(S(=O)(=O)N(C(=O)c2ccncc2)c2ccc3oc4c(c3c2)CCCC4)cc1[N+](=O)[O-]	-16.4%	-13.4%
CC(C)C[C@@H](CN1CCCC1CN1C(=S)NC[C@@H]1Cc1ccc(O)cc1)N1C[C@H](Cc2ccc(O)cc2)N(CCc2ccccc2)C1=S (some centres undefined)	10µM*	-3.1%
O=C(NCc1ccccc1)c1ccc2nc(N3CCOCC3)sc2c1	-13.7%	-0.8%
C/C(=C(\C#N)C(=O)NCCN1CCOCC1)N(C)C	-11.7%	-12.1%
CCC(c1nnnn1Cc1ccccc1)N(Cc1ccccc1)Cc1cc2cc(C)ccc2[nH]c1=O (centres undefined)	-20.4%	-21.4%
CC(C)CC(N)c1csc(Nc2ccc(C(=O)N(C)Cc3ccccc3)cn2)n1 (centres undefined)	-17.4%	-28.5%
C=CCNC(=O)/C(=C/c1ccc(Br)cc1)NC(=O)c1ccccc1OC	-10.5%	3.3%
CCOc1ccc(NS(=O)(=O)c2ccc(NC(=S)NC(C)=O)cc2)cc1	-10.1%	i
N/C(=N\OC(=O)N1CCOCC1)c1ccc(Cl)cc1	-13.3%	-13.9%
O=C(CCC(=O)Nc1ccc(F)cc1)N/N=C/c1ccc(Br)cc1	-17.3%	-25.2%
O=C(O)CCc1ccc(-c2ccc(Br)cc2)n1Cc1ccco1	-1.5%	-14.7%
C[C@H](CO)N1C[C@H](C)[C@@H](CN(C)Cc2ccc(-c3ccccc3)cc2)Oc2c(NS(=O)(=O)c3ccc(F)cc3)cccc2C1=O	?	?
Cc1ccc2cccc(Oc3nnnn3-c3ccccc3)c2n1	10.0%	0.7%
O=C(Cn1cc(C(=O)C2CC2)c2ccccc21)Nc1ccc(Br)cc1	-13.0%	i
O=C(Nc1nccc(-c2cccs2)n1)c1cccs1	-13.2%	i
Cc1sc2nc(C)n(/N=C/c3ccc(O)cc3O)c(=O)c2c1C	-11.0%	23.9%
CC1CC(=O)c2ccccc2C1C (centres undefined)	-3.5%	-24.6%
CCn1cc(S(=O)(=O)c2cccc(Cl)c2)c(=O)c2cc(F)c(N3CCN(C)CC3)cc21	-23.9%	-1.6%
O=C(CCN1C(=O)COc2ccccc21)NCCCN1CCN(c2ccccc2F)CC1	-19.7%	i
CCC1=NN2C(=N)/C(=C/c3ccc(OS(=O)(=O)c4ccccc4)c(OC)c3)C(=O)N=C2S1	10.1%	i
COc1ccc(NC(=O)c2ccc(-c3nn(C)c(=O)c4ccccc34)cc2)cc1	-12.2%	i
O=P(OC1CCS(=O)(=O)C1)(c1ccccc1)c1ccccc1 (centres undefined)	-6.4%	-17.1%
CCc1ccc(OCCn2c(C3CC(=O)N(Cc4ccc(F)cc4)C3)nc3ccccc32)cc1 (centres undefined)	11.2µM*	?
CCn1c(SCC(=O)c2ccc(Cl)cc2)nnc1-c1cccs1	?	i
COc1ccc(C(C)=O)cc1COC(=O)CNC(=O)c1ccccc1F	-9.2%	-12.6%

# Structural class, those above containing a CF3 group
structure	Vaccinia Venus	Vaccinia mCherry
O=C(c1ccc(S(=O)(=O)Nc2cccc(C(F)(F)F)c2)cc1)N1CCOCC1	-11.1%	-13.9%
O=[N+]([O-])c1cc(C(F)(F)F)c(Cl)cc1N1CCN(CCO)CC1	-14.8%	-15.5%
CC1(C)CC(Cc2ccc(C(F)(F)F)cn2)N(C(=O)OC(C)(C)C)C1 (centres undefined)	-4.0%	1.2%

# (more compounds)
structure	Vaccinia Venus	Vaccinia mCherry
O=C(Nc1ncc(Br)s1)C(Cc1ccccc1)n1cccc1 (centres undefined)	-2.3%	i
COc1ccc(NC(=O)CN(C)C(=O)c2cccc(-n3cccc3)c2)cc1	1.3%	-14.0%
Cc1ccc(C2=Nc3ccccc3N(C(=O)c3ccccc3)C(C)C2)cc1 (centres undefined)	-12.4%	-11.4%
CC(=O)Nc1ccc(OCC(O)CNC(C)C)cc1 (centres undefined)	-10.8%	i
COc1ccc(N2C[C@H](C)[C@@H](CC(=O)Nc3ccccc3)C2=O)cc1	-21.3%	i
CCOC(=O)N1CCN(C(=O)c2ccc(C#CC3(O)CCCCC3)cc2)CC1	-12.6%	i

# Compounds as they come. About 0.87% of those tested had a hit in this group.
